Screening data deposited in PubChem BioAssay by National Center for Advancing Translational Sciences (NCATS).
CtBP-E1A blk – inhibitors of CtBP/E1A interaction. AlphaScreen GST-E1A/His-CtBP binding, 1536-well; hits give low values; control for the full effect not named in the record. activity change, % (no concentration beside the values). 340,000 tested, 0.49% active; in the data active means activity change below about -65%; inconclusive means about -30% to -65%; inactive means above about -30%; note: % is set by controls: 0 for no effect and ±100 for the full control effect; compound concentration not given in the record
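AlphaScreen with 125 nM GST-E1A and 125 nM His-CtBP (5X stocks) in Tris pH 8.0, 300 mM NaCl, BSA, Tween 20, TCEP. Compounds preincubated 2 h at 37 deg C, then glutathione donor/nickel acceptor beads added for 1 h at 37 deg C in dark.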
D2 ag – agonists of human D2 dopamine receptor (beta-arrestin); P14416; DiscoveRx PathHunter D2 beta-arrestin, luminescence, 90 min; 100% = 57 uM dopamine signal; activation, % (concentration not given with the values); 360,000 tested, 0.084% active; AID 624465; in the data active = activation above about 40%; inconclusive = about 15% to 40%; inactive = below about 15%; note: compound concentration not given in the record; the text of the record calls up to 30% inactive
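Agonist mode: compounds alone added to overnight-plated D2 PathHunter cells for 90 min at 37 C, with 57 uM final dopamine (EC100) defining full response. Beta-arrestin recruitment detected by chemiluminescent reagent, read after 1 h at ambient temperature.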
TRPV1 PAM – enhances activation of the human vanilloid receptor TRPV1 | 320,000 tested, 0.02% active | Q8NER1 | potentiation, % at 8.33 µM | TRPV1-expressing cells, Fluo-8 calcium influx, capsaicin EC20 potentiation; host cell line not named in the record; control for the full effect not named in the record; active means potentiation above 80%; inconclusive means 30% to 80%; inactive means below 30%; note: 0% is about no effect
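TRPV1-expressing cells were cultured overnight at 35.5C and loaded with Fluo-8 calcium dye for 40 to 90 min at room temperature. After a 10 s baseline, compound was added and calcium influx was read kinetically for 3 min (ex 480/em 520 nm).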
Six1-Eya2 blk – Six1/Eya2 interaction inhibition | AlphaScreen GST-Six1/His-Eya2 binding, biochemical; hits give low values; control for the full effect not named in the record | activity change, % (no concentration beside the values) | Q15475+O00167 | 360,000 tested, 0.56% active; in the data active = activity change below about -65%; inconclusive = about -30% to -65%; inactive = above about -30%; note: % is set by controls: 0 for no effect and ±100 for the full control effect; compound concentration not given in the record
Target sequence (O00167 whole entry, looked up): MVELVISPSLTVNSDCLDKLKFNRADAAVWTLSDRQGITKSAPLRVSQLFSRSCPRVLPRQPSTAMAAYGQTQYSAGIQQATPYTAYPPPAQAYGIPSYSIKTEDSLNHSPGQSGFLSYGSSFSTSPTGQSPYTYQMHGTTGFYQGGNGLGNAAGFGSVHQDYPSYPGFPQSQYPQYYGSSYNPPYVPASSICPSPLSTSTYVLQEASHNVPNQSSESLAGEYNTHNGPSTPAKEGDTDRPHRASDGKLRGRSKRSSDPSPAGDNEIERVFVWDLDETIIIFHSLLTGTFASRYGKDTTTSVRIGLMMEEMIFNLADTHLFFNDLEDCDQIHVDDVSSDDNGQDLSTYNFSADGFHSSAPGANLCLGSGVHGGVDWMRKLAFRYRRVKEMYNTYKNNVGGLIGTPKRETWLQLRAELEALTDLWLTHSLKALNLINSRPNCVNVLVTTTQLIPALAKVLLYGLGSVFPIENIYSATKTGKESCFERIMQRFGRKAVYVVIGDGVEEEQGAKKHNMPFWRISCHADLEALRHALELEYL
Target sequence (Q15475 whole entry, looked up): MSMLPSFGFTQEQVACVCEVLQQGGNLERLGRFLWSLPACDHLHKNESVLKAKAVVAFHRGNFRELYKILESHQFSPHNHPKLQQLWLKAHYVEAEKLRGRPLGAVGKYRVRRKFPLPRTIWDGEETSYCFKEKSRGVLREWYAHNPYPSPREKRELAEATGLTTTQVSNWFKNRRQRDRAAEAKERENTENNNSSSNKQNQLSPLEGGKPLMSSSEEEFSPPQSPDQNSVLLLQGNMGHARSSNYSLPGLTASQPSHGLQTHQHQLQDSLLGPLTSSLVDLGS
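GST-Six1 + His-Eya2 (5X stock: 250/500 nM); Tris pH 8.0, 300 mM NaCl, 0.05% BSA, 0.02% Tween 20; GSH donor/Ni acceptor beads; 1 h 37 °C dark; AlphaScreen readout.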
PINK1 modulator – modulators of PINK1 expression. PINK1 immunofluorescence, high-content cytometry, 24 h. Potency, µM (titrated, usually from 76.6 µM), inactives show top-dose activation (PINK1 increase), most hits filed as activators. 410,000 tested, 0.2% active. AID 624263; active = well fitted activation curve with a large enough effect; inconclusive = small, poorly fitted or top-dose-only effect; inactive = flat fitted curve, though single readings scatter; cell line not stated here;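 note: potency is the fitted concentration of half-maximal effect; % of control where 0% means no effect; nearly all actives have a fitted effect of over 65% in size; a mitochondrial uncoupler was the plate control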
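PINK1 protein level read as immunofluorescence by microplate cytometer in a fixed, stained stable cell line after 24 h exposure to five compound concentrations, with CCCP as control.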
Sfp inh – Sfp phosphopantetheinyl transferase inhibition; Q9F4F7; Biochemical Sfp PPTase activity, qHTS; Potency, µM, for the others: max response, negative = inhibition, most hits filed as inhibitors; 310,000 tested, 3.5% active; AID 1490; active = well fitted inhibition curve with a large enough effect; inconclusive = small, poorly fitted or top-dose-only effect, or another doubt; inactive = no such curve, though single readings can be large or run the other way;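 note: the enzyme is Sfp with the accession as filed and its product quenches rhodamine fluorescence; potency is the fitted concentration of half-maximal effect; 0% = enzyme reaction without inhibitor and -100% = no enzyme wells; top concentration of the series not given in the record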
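Reaction rates are the 30-min fluorescence difference (ex 525, em 598 nm) in wells containing 15 nM Sfp, 5 uM rhodamine-CoA and 12.5 uM BHQ-2-YbbR at pH 7.6 with 10 mM MgCl2.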
D2 PAM – potentiates the human D2 dopamine receptor allosterically; P14416; AID 624464; 360,000 tested, 0.23% active; DiscoveRx D2 beta-arrestin cells, luminescence, 90 min; 100% = 57 uM dopamine signal; potentiation, % (concentration not given with the values); active = potentiation of 50% or more; inconclusive = 30% to 50%; inactive = 30% or less;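 note: compound concentration not given in the record; tested on top of an EC20 dose of dopamine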
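PathHunter beta-arrestin assay in DiscoveRx D2 cells. Compounds were added with an EC20 of dopamine (50 nM final) for 90 min at 37 deg C. Luminescence was read 1 h after detection reagent, with 57 uM dopamine as the EC100 control.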
* marks the source's active call; other numbers are inactive results; ? = inconclusive; / = no result given; & = joins results of further samples; [ ] = another dose, or the depositor's remark. Rows are unselected. Share with any hit: about 3.7%.

SMILES	CtBP-E1A blk	D2 ag	TRPV1 PAM	Six1-Eya2 blk	PINK1 modulator	Sfp inh	D2 PAM
Cn1c(O)c(N=NC(=S)Nc2ccccc2F)c2cc(S(=O)(=O)N3CCOCC3)ccc21	-21	5.5	0	-20	-0.8%	22%	-9
COc1ccc(C=NCCCN2CCOCC2)cc1	-9	-1.7	-3	9	0.3%	-2%	-5
COc1ccccc1C(=O)Nc1cccc2c1CCCC2	-2	-1.5	-8	7	-0.2%	10%	-25
O=C(CCCn1c(=O)[nH]c2cc(Cl)ccc2c1=O)N1CCN(c2ccc([N+](=O)[O-])cc2)CC1	1	-2.2	-1	-1	6.2%	-2%	-3
COc1ccc(C2Nc3ccccc3C(=O)N2Cc2ccco2)cc1COc1ccccc1F (stereo not given)	-1	-4.8	5	-7	3.5%	-6%	-9
Cc1cc(NC(=O)CS(=O)c2cn(Cc3cccc(Cl)c3)c3ccccc23)no1 (stereo not given)	-6	-2.5	/	-22	3.8%	/	-4
Cc1cc(C)n(-c2nc3ccccc3nc2N2CCCC2)n1	20	-1.9	10	15	1.6%[38.3 µM]	-3%	-7
COc1cccc(-c2cnc(C(O)c3ccc(F)cc3)[nH]2)c1 (stereo not given)	-12	-3.8	/	0	-0.1%	/	-9
NC(=O)c1ccc(Oc2ccc3c(c2)CCC3)c([N+](=O)[O-])c1	-3	-6.3	-12	20	1.0%	-3%	-5
CN(c1ccc(C(=O)Nc2cccnc2)cc1)S(C)(=O)=O	-5	-3.7	-6	-5	0.9%	7%	-23
O=C(NCCOc1nc(N2CCOCC2)nc(N2CCOCC2)n1)Nc1ccccc1	0	-2.6	-12	5	-2.8%	11%	-1
O=C1C(=O)N(CCCn2ccnc2)C(c2cccnc2)/C1=C(/O)c1ccc(F)cc1 (stereo not given)	2	-1.0	-16	2	-3.5%	-5%	-5
O=C(Nc1ccccc1Cl)OCC#CCOC(=O)Nc1ccccc1Cl	6	-0.6	/	6	4.6%	/	4
Cc1ccc2[nH]c(=O)c(CN(CCCO)C(C)c3nnnn3Cc3ccco3)cc2c1 (stereo not given)	2	-0.8	7	-11	1.4%	7%	-1
Cn1c(CC(=O)Nc2ccccc2)nnc1SCC(=O)NC1=NCCS1	2	-4.3	-3	-4	0.7%	0%	-7
CC(=O)NCCc1nc2cc(NS(=O)(=O)c3ccc(Cl)cc3)ccc2n1C	/	2.7	-2	3	2.1%	5%	5
O=C(COC(=O)c1ccc(Br)cc1)NC1CCCC1	6	-1.2	-4	5	2.4%	12%	-6
Cc1cc(C=O)c(C)n1-c1cccc(C(=O)O)c1	-2	-5.9	-14	-22	3.4%	8%	2
CCOC(=O)C1CCCN(C(=O)CC(c2ccccc2)c2ccccc2)C1 (stereo not given)	1	0.6	-10	9	5.1%	11%	-12
O=S(=O)(/N=C(/Nc1ccccn1)c1ccccc1)c1ccc(Cl)cc1	2	1.6	5	1	0.8%[38.3 µM]	27%	-6
CCOC(=O)c1ccc(-n2c(CN3CCN(CCO)CC3)nc3ccc([N+](=O)[O-])cc3c2=O)cc1	/	-2.1	5	-9	-0.5%	?	-8
CCCCCCC(c1c(C)n(C)n(-c2ccccc2)c1=O)c1c(C)n(C)n(-c2ccccc2)c1=O	-2	-2.2	-10	-7	-0.4%	15%	1
COc1cc2c(cc1OC)C(COc1ccc(C(C)C)cc1)NCC2 (stereo not given)	/	-4.5	0	6	2.6%	-6%	-22
Cc1noc(C)c1S(=O)(=O)N1CCCN(C(=O)/C=C/c2ccccc2F)CC1	/	-2.5	-6	-3	0.4%	/	3
COC(=O)CSc1nnc(CNC(=O)c2ccccc2OC)n1-c1ccc(OC)cc1	10	-0.6	7	-2	-3.3%[38.3 µM]	0%	-12
O=C(CCc1nnc(CCCCc2ccccc2)o1)NCCc1cccnc1	23	-4.7	10	0	1.9%	-6%	4
Cc1cc(-n2c(C)cc(C(=O)CSc3ncnc4ccccc34)c2C)no1	-11	2.1	13	-18	-0.5%	?	18
COc1ccc(C2=CC(=O)C[C@H](c3ccc(OC)c(OC)c3)C2)cn1	1	1.0	0	-2	-0.9%	/	-5
COc1ccc(NC(=O)N2CCCc3ccccc32)c(OC)c1	-21	0.0	10	-11	-0.9%	7%	-8
C/C(=N\NC(=O)c1ccc(Cn2cc([N+](=O)[O-])cn2)o1)c1cccc(NC(=O)c2cccnc2)c1	-16	-3.0	30	?	5.1%	26%	1
CCN1CCN(C(=O)/C(=C/c2cccs2)NC(=O)c2ccc(C)c(C)c2)CC1	-19	-4.2	-5	-8	-1.1%	10%	-23
Cc1cc(C(C)(C)C)c(O)c(C(C)(C)C)c1	0	-2.7	8	-1	3.8%&-0.4%	11%&16%	6
Cc1cc(OC(C)C(=O)NCc2ccccn2)c2c(C)c(Cc3ccccc3)c(=O)oc2c1 (stereo not given)	13	0.2	2	6	7.3%	0%	1
CCOC(=O)Nc1ccc2c(c1)N(C(=O)N1CCN(C)CC1)c1ccccc1S2	-16	-5.6	-4	-11	-3.5%	-17%	-12
COc1cc(-c2nc3ccc4ccccc4c3c3c2CCC3)cc(OC)c1OC	3	-10	13	-1	-1.0%	?	-18
CCN(CC)C(=O)[C@H]1C[C@H](CC(=O)NC(C)(C)C)C(=O)N2CCc3c([nH]c4cc(CCC(=O)N(C)C)ccc34)[C@]12C	3	1.5	/	0	-0.8%	/	/
C=CCOc1ccc(CN(C)C(=O)CNC(=O)c2ccc(-c3ccccc3)cc2)cc1	2	-2.7	4	-4	5.2%	7%	-5
COc1cc(OC)cc(C(C(=O)NC2CCCCC2)N(C(=O)c2ccno2)c2ccccc2)c1 (stereo not given)	4	-1.7	-16	4	-0.4%	-2%	-14
O=C(O)C1OC1(c1ccccc1Cl)c1ccccc1Cl (stereo not given)	9	-2.1	/	3	3.5%	/	-9
COc1ccccc1CC1(C)C(=O)Nc2ccc(OC(F)(F)F)cc21 (stereo not given)	5	0.7	/	-12	1.1%	/	-11
CCN(CCCNC(=O)C1CCCN(S(=O)(=O)c2cnc[nH]2)C1)c1ccccc1 (stereo not given)	-2	-4.7	-14	0	-0.7%&1.6%	8%	-7
CCOC(=O)c1c(C)oc2ccc(OC(=O)COc3c(F)c(F)c(F)c(F)c3F)cc12	/	-4.7	27	4	-1.2%	6%	-4
Oc1ccc2ccccc2c1C=Nc1ccc(Cl)cn1	4	3.5	?	-7	-0.9%	-12%	6
Cc1nn2c(N3CCCC3)c3c(nc2c1-c1ccccc1)CCC3	9	1.3	0	17	10%	?	-9
N#CCN1CCN(CC(=O)Nc2cccc3ccccc23)CC1	5	-0.2	8	6	-1.3%	6%	-13
COC(=O)c1ccc2c(=O)n(CCCCCC(=O)NCc3ccccn3)c(=O)[nH]c2c1	-12	0.9	3	4	-0.7%	-15%	2
COc1ccc(-n2c(SCC(=O)N3CCCCC3)nnc2-c2cccnc2)cc1	-1	-0.5	7	-11	-0.8%	-1%	15
O=C(CN1C(=O)NC2(CCCCC2)C1=O)Nc1ccc(N2CCCCC2)cc1	-9	0.1	/	-2	3.9%	/	-5
CCOC(=O)/C(C#N)=C/c1ccc(OCC(=O)Nc2ccccc2)c(OC)c1	-2	-4.5	4	0	3.3%	?	5
CC(=O)OC1COC(OC2C(O)C(C)OC(OC3C(OC4CCC5(C)C(CCC6(C)C5CC=C5C7CC(C)(C)CCC7(C(=O)O)CCC56C)C4(C)CO)OCC(O)C3O)C2O)C(O)C1OC(C)=O (stereo not given)	/	/	-1	/	/	8%	-15
Cc1ccc(S(=O)(=O)Cn2nnnc2CN2CCN(C(=O)c3ccco3)CC2)cc1	-2	-3.7	0	1	2.4%	15%	-7
CCOc1ccc(CCNC(=O)C2CCC(=O)N2C2CCCCC2)cc1OCC (stereo not given)	-17	-0.7	-2	-27	4µM*	11%	0
CCS(=O)(=O)Nc1ccc(C2=NN(C(=O)c3ccco3)C(c3cccc(F)c3)C2)cc1 (stereo not given)	/	-4.2	-15	-5	5.6%	5%	10
CN(C(=O)Nc1cccc([N+](=O)[O-])c1)c1ccccc1	0	-3.1	/	3	2.1%	/	-11
CN(C)c1ncnc2c1ncn2[C@H]1CN(C2CCCC2)C[C@@H](CO)O1	7	-4.3	/	10	0.6%	/	-3
COc1ccc(-c2cc3ccccc3oc2=O)cc1NC(=O)c1ccc(Br)o1	-2	-6.5	-1	-4	6.1%	?	-14
CCOC(=O)c1cc(-c2cccc([N+](=O)[O-])c2)on1	-19	-3.0	0	0	0.2%	15%	-1
O=C(O)c1ccc(Cl)c(NCc2ccncc2)c1	4	-5.7	-7	-17	-0.7%	11%	-5
Cc1cccc(-c2c3c(=O)n(C)c(=O)n(C)c3cn2CCO)c1	3	-5.0	6	-12	1.8%	-16%	-5
COc1ccc(C(=O)NC(=S)N2CC(C)OC(C)C2)cc1OC (stereo not given)	0	0.7	14	1	-1.8%	?	-2

Profiles as entered above. Values in the order: CtBP-E1A blk, D2 ag, TRPV1 PAM, Six1-Eya2 blk, PINK1 modulator, Sfp inh, D2 PAM
Cc1cc(-n2c(C)cc(C(=O)CSc3ncnc4ccccc34)c2C)no1 is listed with -11, 2.1, 13, -18, -0.5%, ?, 18
Cn1c(CC(=O)Nc2ccccc2)nnc1SCC(=O)NC1=NCCS1 is listed with 2, -4.3, -3, -4, 0.7%, 0%, -7
COc1ccccc1CC1(C)C(=O)Nc2ccc(OC(F)(F)F)cc21 (stereo not given) is listed with 5, 0.7, /, -12, 1.1%, /, -11
O=C(CN1C(=O)NC2(CCCCC2)C1=O)Nc1ccc(N2CCCCC2)cc1 is listed with -9, 0.1, /, -2, 3.9%, /, -5
Cc1cc(C)n(-c2nc3ccccc3nc2N2CCCC2)n1 is listed with 20, -1.9, 10, 15, 1.6%[38.3 µM], -3%, -7

More structures
SMILES	CtBP-E1A blk	D2 ag	TRPV1 PAM	Six1-Eya2 blk	PINK1 modulator	Sfp inh	D2 PAM
Cc1ccc(Cn2c(SCC(=O)NCc3ccco3)nc3ccsc3c2=O)cc1	-3	-3.3	-8	-3	?	3%	-18
Cc1ccc(S(=O)(=O)c2cn(CC(=O)Nc3ccccc3)c3ccc(F)cc3c2=O)cc1	1	-3.6	-2	3	3.9%	-28%	-12
CC(=O)c1c(C)oc2ccc(N(C(C)=O)S(=O)(=O)c3cccc4cccnc34)cc12	0	5.5	6	11	3.8%	-19%	-1
NC(=O)c1c(NC(=O)c2ccccc2)sc2c1CCN(Cc1ccccc1)C2	-15	-1.0	-24	1	?	15%	-7
